Assay outcomes as filed in PubChem.
HSD17B inh = inhibitors of human HSD17B10 dehydrogenase | hit rate 7.6% among 75,000 | Potency, µM (highest dose often 57.1 µM), for inactives: top-dose activity change, negative = inhibition, actives largely listed as inhibitors | recombinant HSD17B10, NADH fluorescence kinetic; many of its hits are not listed in these tables | Q99714 | AID 893; active means well fitted inhibition curve with a large enough effect; inconclusive means small, poorly fitted or top-dose-only effect; inactive means no such curve, though single readings can be large or run the other way;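 further: the protocol describes HADH2 (HSD17B10) and not the HSD17B4 of the title; nearly all actives have a fitted effect of over 70% in size; most hits overshoot -100% by far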
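Activity followed as NADH fluorescence increase (ex 360, em 450 nm) every 30 seconds for 4 min, using final 90 uM beta-hydroxybutyryl CoA and 1 mM NAD+. Recombinant His-tagged enzyme, 20 nM, pH 9.0 Tris buffer, 15 min compound preincubation.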
An asterisk follows results filed as active; [ ] = dose if it differs, or a comment. On the % scale 0 is the no-effect control and ±100 the full control effect; potency means the concentration at half of the fitted maximal effect. These rows are one share of the data (hit frequency here may not be typical).

What do the screens show for `Oc1cc(O)c2c(c1)O[C@H](c1ccc(O)c(O)c1)[C@@H](O)[C@@H]2c1c(O)cc(O)c2c1O[C@@H](c1ccc(O)c(O)c1)[C@H](O)C2`?
HSD17B inh: -19.0%[11.4 µM]

How did COc1ccc(/C=C/C(=O)Nc2ccccc2C(=O)O)cc1OC do in these assays?
HSD17B inh: -20.6%

How did O=C1c2ccc(O)c(O)c2C(=O)c2c(O)ccc(O)c21 do in these assays?
HSD17B inh: 5.01µM*

How did CC(=O)Nc1ccc(C(=O)O)cc1 do in these assays?
HSD17B inh: 5.3%

Results for CCCCCCO ?
HSD17B inh: 4.6%

Results for Cc1cc(-c2ccccc2)nnc1NCCN1CCOCC1 ?
HSD17B inh: 5.4%

Results for COc1cc(O)c2c(=O)cc(-c3ccc(OC)c(-c4c(O)cc(O)c5c(=O)cc(-c6ccc(O)cc6)oc45)c3)oc2c1 ?
HSD17B inh: inconclusive

How did CC[C@H](Cc1c(I)cc(I)c(N)c1I)C(=O)O do in these assays?
HSD17B inh: -5.1%[25.6 µM]

Results for CC(=O)c1ccc(S(=O)(=O)NC(=O)NC2CCCCC2)cc1 ?
HSD17B inh: 6.3%

How did CN1CCOC(c2ccccc2)c2ccccc2C1 (centres undefined) do in these assays?
HSD17B inh: 4.3%

What do the screens show for `CN(C)CCOC(C)(c1ccccc1)c1ccccn1` (centres undefined)?
HSD17B inh: 0.7%

What do the screens show for `CCCCCCN`?
HSD17B inh: -0.1%

What do the screens show for `CC(=O)NC(Cc1ccccc1)C(=O)O` (centres undefined)?
HSD17B inh: 7.5%

How did CC(C(=O)O)c1ccc(C(=O)c2cccs2)cc1 (centres undefined) do in these assays?
HSD17B inh: 1.7%

Results for Cc1c(NC(=O)c2cccnc2)c(=O)n(-c2ccccc2)n1C ?
HSD17B inh: 12.7%

Results for O=C(CCNNC(=O)c1ccncc1)NCc1ccccc1 ?
HSD17B inh: -2.6%

Results for O=C(O)[C@H]1[C@H]2C[C@H]3c4[nH]c5ccccc5c4CCN3C[C@@H]2CC[C@@H]1O ?
HSD17B inh: inconclusive

How did CCCn1cnc2c1c(=O)n(CCCCC(C)=O)c(=O)n2C do in these assays?
HSD17B inh: -3.2%

What do the screens show for `CCCCCCCCCCCCCCC[C@H](O)[C@H](N)CO`?
HSD17B inh: 3.5%

What do the screens show for `Cc1ccccc1OC[C@H](O)CO`?
HSD17B inh: 3.8%[25.6 µM]

How did CC(=O)C1CCC2C3CC(C)C4=CC(=O)CC[C@@]4(C)C3C(O)C[C@@]12C (some centres undefined) do in these assays?
HSD17B inh: 3.0%

What do the screens show for `CCCN[C@@H](C)C(=O)Nc1c(C)csc1C(=O)OC`?
HSD17B inh: 7.8%[25.6 µM]

What do the screens show for `CN(C)CCOC(=O)[C@@H](c1ccccc1)C1(O)CCCC1`?
HSD17B inh: -0.3%[25.6 µM]

What do the screens show for `CC(COc1ccccc1)NC(C)C(O)c1ccc(O)cc1` (centres undefined)?
HSD17B inh: 4.3%

Results for COc1ccccc1N1CCN(CCCNc2cc(=O)n(C)c(=O)n2C)CC1 ?
HSD17B inh: -7.2%

What do the screens show for `COC(=O)C1=CO[C@@H](O[C@H]2OC(CO)C(O)C(O)C2O)C2C1CC(O)C2C` (some centres undefined)?
HSD17B inh: 5.6%

How did C[C@@H](N)C1CCC(C(=O)Nc2ccncc2)CC1 (some centres undefined) do in these assays?
HSD17B inh: -9.1%

How did COc1ccc(S(=O)(=O)N2c3ccc(Cl)cc3[C@](O)(c3ccccc3Cl)[C@@H]2C(=O)N2CCC[C@H]2C(N)=O)cc1OC do in these assays?
HSD17B inh: -4.1%

How did O=S(=O)(c1cccc2cnccc12)N1CCCNCC1 do in these assays?
HSD17B inh: 0.5%

Results for c1ccc(CC2=NCCN2)cc1 ?
HSD17B inh: 1.5%

How did O=c1cc(-c2ccc(O)cc2)oc2cc(OC3OC(CO)C(O)C(O)[C@H]3O[C@@H]3OC[C@@](O)(CO)C3O)cc(O)c12 (some centres undefined) do in these assays?
HSD17B inh: -6.7%

How did CCOc1ccccc1C(N)=O do in these assays?
HSD17B inh: -1.9%

What do the screens show for `Cc1nc2ccccn2c(=O)c1CCN1CCC(C(=O)c2ccc(F)cc2)CC1`?
HSD17B inh: -11.6%

What do the screens show for `COc1ccc(C(=O)CC(=O)c2ccc(C(C)(C)C)cc2)cc1`?
HSD17B inh: inconclusive

What do the screens show for `O=C(NCCc1c[nH]c2ccccc12)c1cccnc1`?
HSD17B inh: 5.4%

Results for CC(=O)c1ccc2c(c1)N(CCCN(C)C)c1ccccc1S2 ?
HSD17B inh: -6.0%[25.6 µM]

What do the screens show for `C=CC1=C(C(=O)O)N2C(=O)C(NC(=O)/C(=N\O)c3csc(N)n3)C2SC1` (centres undefined)?
HSD17B inh: -9.4%

Grouped by structure, the entries above containing nitrogen in an aromatic ring.
Results for Cc1cc(-c2ccccc2)nnc1NCCN1CCOCC1 ?
HSD17B inh: 5.4%

What do the screens show for `CN(C)CCOC(C)(c1ccccc1)c1ccccn1` (centres undefined)?
HSD17B inh: 0.7%

Results for Cc1c(NC(=O)c2cccnc2)c(=O)n(-c2ccccc2)n1C ?
HSD17B inh: 12.7%

Results for O=C(CCNNC(=O)c1ccncc1)NCc1ccccc1 ?
HSD17B inh: -2.6%

Results for O=C(O)[C@H]1[C@H]2C[C@H]3c4[nH]c5ccccc5c4CCN3C[C@@H]2CC[C@@H]1O ?
HSD17B inh: inconclusive

How did CCCn1cnc2c1c(=O)n(CCCCC(C)=O)c(=O)n2C do in these assays?
HSD17B inh: -3.2%

Results for COc1ccccc1N1CCN(CCCNc2cc(=O)n(C)c(=O)n2C)CC1 ?
HSD17B inh: -7.2%

How did C[C@@H](N)C1CCC(C(=O)Nc2ccncc2)CC1 (some centres undefined) do in these assays?
HSD17B inh: -9.1%

How did O=S(=O)(c1cccc2cnccc12)N1CCCNCC1 do in these assays?
HSD17B inh: 0.5%

What do the screens show for `Cc1nc2ccccn2c(=O)c1CCN1CCC(C(=O)c2ccc(F)cc2)CC1`?
HSD17B inh: -11.6%

What do the screens show for `O=C(NCCc1c[nH]c2ccccc12)c1cccnc1`?
HSD17B inh: 5.4%

What do the screens show for `C=CC1=C(C(=O)O)N2C(=O)C(NC(=O)/C(=N\O)c3csc(N)n3)C2SC1` (centres undefined)?
HSD17B inh: -9.4%
